# LANA-H2A inh: blockers of LANA interaction with H2A/H2B – biochemical, FP readout, HTS, primary screen; AID 2629, 2010; 320,000 tested, 0.6% active; Protein LANA1 (Human herpesvirus 8 type P (isolate GK18)), Q9QR71; inhibition, % (concentration not given with the values); cell-free LANA-H2A/H2B peptide, fluorescence polarization; in the data active = inhibition mostly above about 10%, no sharp cut-off; inactive = mostly below about 6.7%;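 note: stock transfer was 7.5 nL into about 10 µL; 0% = median of vehicle wells and 100% = median of positive control wells; one replicate is shown; the record names a cut of 25% in any replicate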
# Target sequence (Q9QR71 whole entry, looked up): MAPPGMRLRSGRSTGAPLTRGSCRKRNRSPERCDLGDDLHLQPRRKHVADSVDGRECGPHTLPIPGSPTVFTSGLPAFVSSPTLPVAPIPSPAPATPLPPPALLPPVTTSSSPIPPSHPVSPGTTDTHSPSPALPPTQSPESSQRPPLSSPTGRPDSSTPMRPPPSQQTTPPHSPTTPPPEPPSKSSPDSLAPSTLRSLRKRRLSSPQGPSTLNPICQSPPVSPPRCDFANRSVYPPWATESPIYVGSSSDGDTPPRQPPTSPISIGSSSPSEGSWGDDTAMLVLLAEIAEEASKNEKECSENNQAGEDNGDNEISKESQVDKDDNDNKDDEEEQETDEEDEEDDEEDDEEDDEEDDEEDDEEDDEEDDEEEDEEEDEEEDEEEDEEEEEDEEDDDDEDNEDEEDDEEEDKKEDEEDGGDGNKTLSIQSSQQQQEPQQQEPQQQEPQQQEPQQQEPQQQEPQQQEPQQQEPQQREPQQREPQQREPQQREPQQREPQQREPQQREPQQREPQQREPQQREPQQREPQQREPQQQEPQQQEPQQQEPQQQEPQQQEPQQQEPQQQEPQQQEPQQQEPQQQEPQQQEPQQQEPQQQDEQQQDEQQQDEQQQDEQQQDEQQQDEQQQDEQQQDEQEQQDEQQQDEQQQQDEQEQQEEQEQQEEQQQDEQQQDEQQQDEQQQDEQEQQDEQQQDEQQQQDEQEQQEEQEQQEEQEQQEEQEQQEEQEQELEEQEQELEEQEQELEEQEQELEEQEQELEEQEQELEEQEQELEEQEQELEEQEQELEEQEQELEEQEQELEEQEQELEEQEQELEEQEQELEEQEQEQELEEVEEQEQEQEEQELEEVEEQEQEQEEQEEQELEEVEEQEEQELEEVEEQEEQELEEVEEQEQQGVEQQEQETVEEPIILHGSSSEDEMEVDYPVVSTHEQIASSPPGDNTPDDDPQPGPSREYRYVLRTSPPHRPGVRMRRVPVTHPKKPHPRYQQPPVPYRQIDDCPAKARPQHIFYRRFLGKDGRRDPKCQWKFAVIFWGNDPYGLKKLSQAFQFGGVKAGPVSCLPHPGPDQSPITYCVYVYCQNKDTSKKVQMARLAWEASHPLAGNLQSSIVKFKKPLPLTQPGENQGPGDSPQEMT
# ALR H2O2 inh: inhibitors of human ALR sulfhydryl oxidase, primary screen, biochemical, H2O2 detection, HRP-luminol luminescence, single point. inhibition, % (test concentration not listed). 290,000 tested, 3.8% active. FAD-linked sulfhydryl oxidase ALR (Homo sapiens), P55789. purified ALR, DTT oxidation;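 active = mean and each replicate at 75% or more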;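 note: stock transfer was 7.5 nL into about 7.5 µL; 0% = neutral wells and 100% = wells with inactivated enzyme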
# HNF4A DNA FP: change in binding of human HNF4A to DNA, primary screen, biochemical, fluorescence polarization, FITC-DNA. 1 h. AID 1224865, 2016. activity change, % at 10 µM. 360,000 tested, 0.3% active. Hepatocyte nuclear factor 4-alpha (Homo sapiens), P41235; in the data active = activity change above about 30%, passing the limit was not always enough;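 note: controls were the assay level and a saturating level of protein; the project sought stronger binding though the title names inhibitors; some compounds called inactive have numbers as strong as hits; positive values seem to mean higher polarization but the record does not say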
# Beta2AR agonist: beta2AR agonists driving receptor internalization, primary screen, cell-based, FAP fluorogen, flow cytometry. Am2.2-beta2AR cells; reference of the scale not given here. response, % (test concentration not listed). 340,000 tested, 0.43% active. AID 504454, 2011;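 active = response above a set limit, near 3 SD of response in nonfluorescent compounds, cut at about 42% in these data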;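 note: stock transfer was 100 nL into about 11 µL; a reference agonist was the positive control; negative values mostly stem from fluorescent compounds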
# FGF22 binding: binders of human FGF22 protein, primary screen, FGF22 synaptogenesis inhibitor project, biophysical, thermal shift, single point; AID 651658, 2012; recombinant FGF22 thermal shift, SYPRO orange fluorescence; percent of sucrose octasulfate shift, DMSO zero; calls only at 9.99 µM; Fibroblast growth factor 22 (Homo sapiens), Q9HCT0; 340,000 tested, 1.5% active;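 active = melting point raised past a set limit in the mean and every replicate; three in four hits are not shown here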
# UCH37 inh: inhibitors of human UCH37 deubiquitinase, primary screen, biochemical, Ub-AMC cleavage, fluorescence. Ubiquitin carboxyl-terminal hydrolase isozyme L5 (Homo sapiens), Q9Y5K5. purified proteasome/UCH37. inhibition, % (test concentration not listed). 330,000 tested, 0.33% active. AID 588478, 2011;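 active = mean of two replicates above 20%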;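 note: 0% = compound-free wells with enzyme and 100% = wells lacking proteasome; stock transfer was 100 nL into about 20 µL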
#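 Material: human UCH37 enzyme supplied as purified proteasome complex / Amount: 0.15 nM proteasome as dispensed / Buffer or medium: pH 7.4 Tris-HCl (50 mM) with ovalbumin, ATP-MgCl2, DTT / Times: preincubation 30 min, reaction 25 min, room temperature / Technique: AMC fluorescence from Ub-AMC cleavage, excitation 355 nm, emission 460 nm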
# E coli growth: E. coli growth inhibition, primary screen, OD600 | Escherichia coli growth, 23 h; hits give low values | OD600 absorbance (test concentration not listed) | 330,000 tested, 0.21% active;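 active = OD600 absorbance below the run mean of sample wells minus 3.6 SD, in any replicate, cut at about 0.56 in these data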;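 note: stock transfer was 300 nL into about 60 µL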
# * = called active by the depositor; i = inactive; . = not tested or not shown. Some of the compounds tested; the hit share may differ from the screen's.
SMILES,LANA-H2A inh,ALR H2O2 inh,HNF4A DNA FP,Beta2AR agonist,FGF22 binding,UCH37 inh,E coli growth
CC1CCCN(S(=O)(=O)c2ccc3c(c2)C(C)(C)C(=O)N3C)C1 (centres undefined),2.3,-6,4.0,2,.,3.3,0.72
Cc1ccc2nsnc2c1S(=O)(=O)N(Cc1ccco1)Cc1cc2ccc(C)c(C)c2[nH]c1=O,.,.,-3.1,-7,.,-4.2,0.68
CCC(C)NC(=O)CSc1nc2ccccc2c(=O)n1CCCC(=O)NCC1CCCO1 (centres undefined),0.7,-4,-1.6,1,.,4.2,0.67
CCC(=O)c1cn(CC(=O)Nc2ccc(C)cc2C)c2ccccc12,4.2,.,-1.0,2,i,6.8,0.66
CCOC(=O)c1cc2c(=O)c3ccccc3oc2nc1C,-6.6,0,1.0,0,i,0.4,0.65
Cc1ccc(S(=O)(=O)NCc2nc(-c3ccccc3)no2)cc1,3.1,-1,0.1,4,i,-0.3,0.67
C=C(C)Cn1c(CCNC(=O)c2ccco2)nc2ccccc21,5.8,1,4.7,-16,i,6.7,0.68
O=C(OCC(=O)N1CCN(C(=O)c2ccco2)CC1)c1sc2ccccc2c1Cl,-1.3,-1,-0.5,2,.,3.0,0.68
Cc1cc(C)c2nc(-c3ccncc3)cc(C(=O)N3CCN(Cc4ccccc4Cl)CC3)c2c1,-2.1,-4,-0.5,21,i,-1.0,0.7
COc1cccc(/C=N/NC(=O)c2cc3c(OC)cccc3[nH]2)c1O,2.3,8,3.5,0,i,.,.
COC(=O)c1cccc(-n2nnnc2SCC(=O)Nc2cc(C)on2)c1,2.9,-1,0.8,13,.,0.7,0.71
COC(=O)c1cc(C(=O)OC)cc(-n2c(C)cc(C=O)c2C)c1,1.3,4,-0.6,10,i,2.4,0.71
COc1ccc(Cl)cc1NC(=O)CN1C(=O)NC2(CCCC2)C1=O,-1.1,-8,4.4,0,i,3.3,0.7
COc1cc(/C=N/NC(=O)CC(=O)NC2CCCCC2)ccc1O,1.9,99*,-3.1,9,i,.,.
CC(=NNC(=O)Cn1ccc(C(F)(F)F)n1)c1ccc(-n2ccnc2)cc1,-4.7,1,-3.5,1,i,-0.8,0.67
COc1ccc(N2CCN(C(=O)CNC(=O)c3nn(-c4ccc(OC)cc4)c(=O)c4ccccc34)CC2)cc1,0.4,5,3.1,7,i,0.5,0.69
CCOC(=O)C1(C)NC(c2ccco2)C2C(=O)N(c3ccc(C)cc3)C(=O)C21 (centres undefined),4.0,2,0.1,2,.,1.5,0.75
NC(=O)c1c(NC(=O)C2c3ccccc3Oc3ccccc32)sc2c1CCCCC2,2.1,5,-4.5,-2,.,6.7,0.71
Cn1cc(C(=O)NCc2cccnc2)c(=O)c2cc(S(=O)(=O)N3CCCCCC3)ccc21,3.1,.,.,.,.,0.4,0.71
O=C(Nc1c(-c2ccccc2)nc2sccn12)c1ccccc1,0.5,20,0.8,0,.,2.7,0.7

# Single entries from the list:
# HNF4A DNA FP with C=C(C)Cn1c(CCNC(=O)c2ccco2)nc2ccccc21 → 4.7
# ALR H2O2 inh with COc1cc(/C=N/NC(=O)CC(=O)NC2CCCCC2)ccc1O → 99*

# Fetched by compound from the entries so far:
SMILES,LANA-H2A inh,ALR H2O2 inh,HNF4A DNA FP,Beta2AR agonist,FGF22 binding,UCH37 inh,E coli growth
Cc1ccc(S(=O)(=O)NCc2nc(-c3ccccc3)no2)cc1,3.1,-1,0.1,4,i,-0.3,0.67
O=C(OCC(=O)N1CCN(C(=O)c2ccco2)CC1)c1sc2ccccc2c1Cl,-1.3,-1,-0.5,2,.,3.0,0.68

# (listing goes on)
SMILES,LANA-H2A inh,ALR H2O2 inh,HNF4A DNA FP,Beta2AR agonist,FGF22 binding,UCH37 inh,E coli growth
CC(=O)N1CCN(c2nc(-c3ccco3)c3c(c2C#N)CC(C)(C)SC3)CC1,7.1,.,-10,-9,.,-92,0.74
Cc1cccc(NS(=O)(=O)c2ccc(C)c(C(N)=O)c2)c1,2.2,-1,-1.0,-2,.,.,.
O=C(COC(=O)c1ccc(O)cc1O)Nc1nnc(-c2ccccc2)o1,-2.9,4,-4.2,-3,i,0.4,0.63
CSc1nc2nc(-c3cccs3)cc(C(F)(F)F)c2c(=O)[nH]1,-2.0,-12,2.1,-12,i,-421,0.71
Cc1cc2c(c(N3CCOCC3)n1)C(=O)OC2,6.5,-12,0.4,10,.,-6.4,0.65
O=C1OCCC1Sc1nnc(-c2ccc(Cl)cc2Cl)o1 (centres undefined),5.4,2,5.5,-5,i,1.6,0.62
c1ccc(-c2ccc(-c3cn4c(n3)CCC4)cc2)cc1,-1.5,.,0.8,5,.,.,0.68
Fc1ccc(NC(=S)N/N=C/c2cccc(Br)c2)c(F)c1,1.0,13,-1.7,-9,.,.,.
Cc1ccc(NC(=S)N(CCN2CCCCC2)Cc2ccco2)cc1C,2.1,-5,-0.5,0,i,2.9,0.67
CCOC(=O)c1[nH]ncc1CN1CCc2ccc(NC(=O)C3CCCO3)cc2C1 (centres undefined),0.0,-8,0.5,-3,i,.,.
O=C1CCCN1CCC(=O)N1CCCC(Nc2ccc(F)c(F)c2)C1 (centres undefined),-1.1,18,-0.2,0,i,.,.
O=C(CCc1nc2sc3c(c2c(=O)[nH]1)CCCC3)NCC(=O)Nc1ccccc1Br,-0.2,19,3.5,-6,i,-1.5,0.68
Cc1ccc(C)c(NS(=O)(=O)c2ccc(OCC(=O)NCc3cccnc3)cc2)c1,-1.8,9,0.6,3,i,3.2,0.72
COCC(=O)Nc1sc2c(c1C(=O)OC)C(C(=O)OC)CC2 (centres undefined),1.4,-4,-2.5,5,.,4.7,0.73
CC(OC(=O)c1cc2sccc2n1C)C(=O)NCCc1ccccc1 (centres undefined),-1.3,-1,1.5,3,.,0.4,0.66
CC(Cc1ccccn1)NC(=O)c1ccc(OC2CCN(Cc3ccccn3)CC2)cc1 (centres undefined),-5.7,-7,-1.2,-17,i,-3.1,0.67
CCc1ccc(N2CC(C(=O)OCC(=O)NC3CCS(=O)(=O)C3)CC2=O)cc1 (centres undefined),-4.4,4,0.9,-20,.,3.4,0.69
Cn1ccnc1Sc1nnnn1-c1ccccc1,-2.4,-4,1.8,-3,.,2.1,0.7
CC(=O)c1cccc(NC(=O)[C@@H](NC(N)=O)C(C)C)c1,-4.4,3,0.7,-7,.,1.9,0.69
COCCCNC(=S)N1CCN(c2nc(-c3ccccc3)cs2)CC1,-2.2,26,-0.9,-3,i,1.6,0.65
NC(=S)N/N=C/c1ccc([N+](=O)[O-])cc1,-4.5,-2,-1.5,4,i,.,.
COc1ccccc1C(=O)NCCC(=O)Nc1ccncc1,-2.9,1,-1.5,1,i,0.2,0.64
O=C(CSc1ncn[nH]1)NCCC(c1ccccc1)c1ccccc1,-1.4,-11,2.7,0,.,5.6,0.76
Cc1cc(OC(C)C(=O)NCCCn2ccnc2)c2c(C)cc(=O)oc2c1 (centres undefined),5.6,-32,3.5,-2,i,-124,0.66
COc1ccc(S(=O)(=O)N2CCN(Cc3ccccc3)CC2)cc1,2.3,-22,-0.8,6,.,1.9,0.64
O=C(NCc1ccco1)C1CCCN(S(=O)(=O)c2cccc3cccnc23)C1 (centres undefined),-4.8,28,2.2,4,i,2.8,0.73
O=C(c1nn2c(C(F)(F)F)cc(-c3cccs3)nc2c1Cl)N1CCCc2ccccc21,-1.2,-3,2.1,.,.,-9.3,0.73
Brc1cccc(-c2nnc(SCc3nc4ccccc4[nH]3)o2)c1,3.1,-2,-0.3,-4,.,.,.
O=S(=O)(NC1C2CC3CC(C2)CC1C3)c1ccc(F)cc1 (centres undefined),.,.,0.6,9,i,-1.0,0.64
O=C(CC1C[C@H](C(=O)N2CCOCC2)[C@@]2(CCC3CCCC3)c3[nH]c4ccccc4c3CCN2C1=O)NCCN1CCOCC1 (some centres undefined),-4.4,.,-0.5,-7,i,1.8,0.7
COc1cc(OC)cc(OC(=O)C2CCN(C3=NS(=O)(=O)c4ccccc43)CC2)c1,-0.8,-19,-0.9,2,i,-1.4,0.72
COc1ccc(-c2noc(-c3ccccc3Cl)n2)cc1OC,0.0,23,4.5,-2,i,-2.7,0.72
COc1ccc(N=CC2=C(O)CC(C)(C)CC2=O)cc1OC,-0.8,36,-1.3,-6,i,17,0.65
CCOc1cc2oc(=O)c3c(c2cc1Cl)CCC3,-2.3,-13,-0.7,-5,.,-6.9,0.71
CCC(C(=O)NCCC(C)C)N(Cc1ccccc1Cl)C(=O)c1snc(C(N)=O)c1N (centres undefined),11,1,0.8,6,i,-20,0.63
Cc1[nH]c2ccc(F)cc2c1CCN(Cc1ccncc1)C(=S)Nc1ccc(F)cc1,-1.3,-5,0.4,-4,i,4.6,0.78
COc1cccc(NC(=O)CN(C)C(=O)CSc2ncnc3sc(C)c(C)c23)c1,1.6,-9,1.1,-7,i,4.7,0.67
COc1ccc(-c2cc(C(=O)N3CCC3)c3ccccc3n2)cc1OC,-3.8,.,2.9,-11,i,-5.9,0.69
CCOc1cc(NC(=S)NCCOC)c(OCC)cc1NC(=O)c1ccco1,2.3,3,5.9,-21,i,3.0,0.72
CCOC(=O)c1ccc(NC(=O)Nc2ccc(Cl)cn2)cc1,-0.2,-5,0.4,9,i,2.4,0.73
C/C(=N\NC(=O)c1ccc2ccccc2c1)c1cccs1,1.4,-16,-0.2,-4,i,.,.
Oc1ccc2ccccc2c1N=Nc1nccs1,2.7,-13,-9.2,38,i,0.6,0.68
O=C(Cn1nc(Cc2cccnc2)c2ccccc2c1=O)N1CCN(c2ccccn2)CC1,3.2,5,2.0,-1,i,-1.2,0.7
O=c1[nH]c2cc(Cl)ccc2n1-c1ccccc1,-6.1,-19,2.6,3,.,2.4,0.67
CC(=O)c1ccc(NC(=O)CN(c2c(C)cccc2C)S(C)(=O)=O)cc1,1.4,-11,-2.1,10,i,4.3,0.67
COc1ccccc1C(=O)Nc1nc(N)n(-c2ccccc2)n1,5.0,-3,0.0,-2,.,-1.7,0.71
CC(=O)N1CCN=C1SCc1cccc(C)c1,6.7,96*,4.2,-13,i,2.0,0.72
CC(C)(C)OC(=O)N[C@H]1C=C[C@@H](OC(=O)CC(=O)OCC(F)(F)F)C1,.,.,-1.0,2,i,3.2,0.7
COc1ccc(NC(=O)CSc2ccc3nnc(-c4ccccn4)n3n2)c(OC)c1,-2.3,-7,-1.7,-3,i,-0.3,0.67
COc1ccc(NC(=O)C(C)Oc2ccc(/C(C)=N\O)cc2)cc1 (centres undefined),-3.8,-8,-2.9,4,.,.,.
O=C(NCc1ccco1)c1ccc(OCC2CCCO2)cc1 (centres undefined),-1.2,-10,-1.8,3,.,2.6,0.72
O=S(=O)(c1cc(F)ccc1F)N1CCC2(CC1)OCCN2S(=O)(=O)c1cccs1,1.9,5,4.7,14,i,0.1,0.7
CCOC(=O)/C(=N/Nc1ccccc1)Sc1nnnn1-c1ccc(C)cc1,0.1,-3,1.1,3,.,.,.
CC(C)(O)C(=O)NNC(=S)Nc1ccc(F)c(Cl)c1,-4.8,65,1.9,1,i,-1.1,0.69
Cc1cccc(NC(=O)Nc2c(C)n(C)n(-c3ccccc3)c2=O)c1C,4.2,-5,-0.4,-5,i,-2.3,0.7
O=C(O)c1ccc(N/N=C/c2ccc(OC(=O)c3ccccc3Cl)cc2)cc1,2.4,-10,-1.8,6,.,.,.
COCCN(Cc1cc2cccc(C)c2n2nnnc12)C(=O)C(F)(F)F,5.9,-6,1.0,-10,.,2.1,0.74
CC(C)C(=O)Nc1c2c(nn1-c1ccccc1)CSC2,0.2,1,3.0,-2,i,1.5,0.72
